BJeLR viability – MLPCN primary cell-based screen for lethality selective to Ras in HRASV12 cells | inhibition, % (concentration not given with the values) | 0.17% of 300,000 active | AID 1554, 2009 | BJeLR (HRASV12) viability, CellTiter-Glo ATP luminescence, 48 h; reference of the scale not given here;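 active = replicate mean above 50%; inconclusive = above 50% but judged a plate artefact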;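 also: 50 nL library stock added to about 25 µL; numbers are from one replicate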
Bead autofluor – compound fluorescence in toxin protease inhibitor counterscreen. compound autofluorescence counterscreen, microsphere flow cytometry; hits give high values. fluorescence intensity (concentration not given with the values). 3.1% of 360,000 active. AID 624483;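 active = at least 3 SD above the mean of all compounds, about 16000 in these data; inconclusive = too few beads counted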;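 also: 100 nL of 1 mM stock went into each well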
PrP UTR inh – inhibition of PrP 5' UTR reporter expression; inhibition, % (test concentration not listed); cell-based PrP 5' UTR mRNA reporter, plate reader; 0.35% of 340,000 active; AID 488862, 2010;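 active = every replicate at 50% or more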;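 also: 0 = median of the neutral control wells; tested in H4 reporter cells; numbers are from one replicate; inactives centre near -14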
Mtb hypoxia rep – PubChem AID 1159583; 0.1% of 300,000 active; fluorescence inhibition, % (test concentration not listed); M. tuberculosis hypoxia-regulated fluorescent reporter, fluorescence;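 active = 35 to 45% if threefold the growth effect, above 45% if 1.5-fold the growth effect; inactive = the rest, general growth blockers included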;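 also: wells of about 50 µL received 100 nL stock; 0% = vehicle wells and 100% = reference inhibitor wells; whole bacteria with a GFP reporter of the hypoxia response; strong numbers were not always called active; many hits fall short of the cut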
RN4220 kill – growth inhibition of S. aureus RN4220, primary screen, OD600; inhibition, % (concentration not given with the values); 0.33% of 330,000 active; AID 1259311, 2017; 16 h;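 active = z-score of -3 or lower and OD600 up to 0.18 on both plates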;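 also: plate controls were untreated cells for no effect and reference antibiotic for full effect; stock transfer was 100 nL into about 80 µL; one replicate is shown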
Sa ugtP lethal – growth inhibition of ugtP-null S. aureus, primary screen, RN4220 ugtP deletion, OD600; 16 h; some inactives read as strong as hits; 0.54% of 330,000 active; growth inhibition, % (concentration not given with the values);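 active = z-score under -3 and OD600 up to 0.15 on both plates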;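 also: plate controls were untreated wells for no effect and antibiotic for full effect; wells of about 80 µL received 100 nL stock; the first replicate is given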
Mtb hypoxia rep growth – further read-out of Mtb hypoxia rep, marked with its call; growth inhibition, %; measured here: M. tuberculosis growth (absorbance);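 0% = vehicle and 100% = reference antibiotic; read after six days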
* hit, by the source's call; ? = inconclusive; . = no result given; & = joins results of further samples.

SMILES	BJeLR viability	Bead autofluor	PrP UTR inh	Mtb hypoxia rep	Mtb hypoxia rep growth	RN4220 kill	Sa ugtP lethal
CCOc1ccc(N(CC(=O)NCCSc2ccccn2)S(C)(=O)=O)cc1	4	3074	-31	1	8	-8.1	-4
CCN1CCc2c(sc(N)c2C(N)=O)C1	3	3762	-26	.	.	1.1	2
COc1ccccc1NC(=O)Cn1c(O)c(N=NC(=O)c2ccccc2O)c2ccccc21	7	4742	-4	4	17	4.9	12
CCN1CCc2ccccc2C1	10	5888	-23	5	0	-0.4	5
CC1CC(=O)N(CC(=O)Nc2ccc(F)cc2F)c2ccccc2S1(=O)=O (configuration not stated)	7	5375	-3	3	6	4.0	4
COc1cccc(-n2c(SCC(=O)NC3CCCCC3)nc3n[nH]c(C)c3c2=N)c1	-2	6504	-15	.	.	.	.
O=c1ccc(/C=C/c2ccccc2)nn1Cc1ccccc1	-16	4223	0	.	.	-5.1	17
COc1ccc(-n2cnc3sc(-c4ccccc4)cc3c2=O)cc1	2	8029	-278	8	3	13	1
CCC1=NN(C(=O)CCc2ccccc2O)C(O)(C(F)(F)F)C1 (configuration not stated)	1	2052	-7	3	7	8.3	-1
CN(C)/N=C/c1ccc(P(c2ccc(/C=N/N(C)C)o2)c2ccc(/C=N/N(C)C)o2)o1	2	4354	-18	.	.	.	.
COc1ccccc1NC(=O)CSc1ccc2nnc(CCNC(=O)c3ccccc3)n2n1	-4	4415	3	10	3	4.1	9
O=C(NCC1CCOCC1)c1ccc2nc(Cc3cccc(Cl)c3)oc2c1	2	?	-11	-4	3	1.4	2
Clc1cccc(Nc2nc(N3CCOCC3)nc(N3CCOCC3)n2)c1	1	5246	7	1	8	-1.8	-11
CCC(C)NC(=O)C(=Cc1ccco1)c1ccccc1 (configuration not stated)	.	.	.	12	3	5.4	1
CC1CCCC(NC(=O)CN2C(=O)c3cccnc3Oc3ccc(Cl)cc32)C1C (configuration not stated)	-20	.	-16	3	8	-0.7	13
COc1cc(C(=O)NC2=NCCS2)ccc1OCc1c(C)noc1C	-9	20499*	-6	0	12	1.1	-3
CCN(CC(=O)Nc1c(F)cccc1F)C(=O)c1ccc(-c2ccc(C(C)=O)cc2)o1	.	6415	-3	3	8	3.3	-1
COC(=O)N(NC(=O)C(O)(C(C)C)C(C)C)c1ccccc1	-3	3512	-11	11	-1	4.2	4
COc1ccc(CNC(=O)C2CCCN(S(=O)(=O)c3cnc[nH]3)C2)cc1 (configuration not stated)	1	3961	-5	.	.	0.4	-5
COc1cc2sc3cc(NCCCN4CCOCC4)ccc3c(=O)c2cc1OC	.	3809	-49	11	13	-2.1	-18
Cc1cc(/C=N/NC(=O)c2cccc([N+](=O)[O-])c2)c(C)n1-c1ccc(Cl)cc1Cl	-6	3097	15	.	.	.	.
Cc1ccccc1CN1C(=O)C2Cc3c([nH]c4ccccc34)C(C)(C)N2C1=O (configuration not stated)	.	.	.	7&4	6&-2	-10&-2.0	-4&2
CC(=O)Nc1ccc(NC(=O)CC2SC(=O)N(CC(=O)c3ccccc3)C2=O)cc1 (configuration not stated)	-3	5532	-3	5	1	1.5	12
O=C(COc1coc(CN2CCN(c3ccccc3)CC2)cc1=O)Nc1ccccc1	9	?	-6	-8	-6	2.3	3

Entries shown so far with four or more nitrogen atoms, in the order listed:
SMILES	BJeLR viability	Bead autofluor	PrP UTR inh	Mtb hypoxia rep	Mtb hypoxia rep growth	RN4220 kill	Sa ugtP lethal
COc1ccccc1NC(=O)Cn1c(O)c(N=NC(=O)c2ccccc2O)c2ccccc21	7	4742	-4	4	17	4.9	12
COc1cccc(-n2c(SCC(=O)NC3CCCCC3)nc3n[nH]c(C)c3c2=N)c1	-2	6504	-15	.	.	.	.
CN(C)/N=C/c1ccc(P(c2ccc(/C=N/N(C)C)o2)c2ccc(/C=N/N(C)C)o2)o1	2	4354	-18	.	.	.	.
COc1ccccc1NC(=O)CSc1ccc2nnc(CCNC(=O)c3ccccc3)n2n1	-4	4415	3	10	3	4.1	9
Clc1cccc(Nc2nc(N3CCOCC3)nc(N3CCOCC3)n2)c1	1	5246	7	1	8	-1.8	-11
COc1ccc(CNC(=O)C2CCCN(S(=O)(=O)c3cnc[nH]3)C2)cc1 (configuration not stated)	1	3961	-5	.	.	0.4	-5
Cc1cc(/C=N/NC(=O)c2cccc([N+](=O)[O-])c2)c(C)n1-c1ccc(Cl)cc1Cl	-6	3097	15	.	.	.	.

The list continues:
SMILES	BJeLR viability	Bead autofluor	PrP UTR inh	Mtb hypoxia rep	Mtb hypoxia rep growth	RN4220 kill	Sa ugtP lethal
O=C(CCCCCCCCC(=O)NN=Cc1ccco1)NN=Cc1ccco1	.	.	.	-1	6	3.2	4
CSCCC(NS(=O)(=O)c1ccccc1F)C(=O)NCCCn1nc(C)cc1C (configuration not stated)	-5	5902	-15	7	11	-1.0	6
CC(=O)Nc1ccc(S(=O)(=O)NC2CC(=O)N(c3ccc(C)c(C)c3)C2)cc1 (configuration not stated)	2	.	2	-2	12	-0.7	6
Fc1ccccc1CNc1ccc(Cl)c(Cl)c1	-4	7179	-19	15	1	-6.5	0
Cn1cnnc1SCC(=O)NCCC1=CCCCC1	.	6608	-13	7	5	6.1	5
CCOc1cc(N2CCOCC2)c(OCC)cc1NC(=O)C(C)Oc1ccccc1 (configuration not stated)	.	4647	-11	5	1	-2.7	21
COC(=O)c1[nH]c2ccc(C)cc2c1NC(=O)CN1CCC(C)CC1	-12	8891	-18	-71	-11	4.7	-10
Cc1ccc(C(c2nnnn2Cc2cccs2)N2CCN(C(=O)c3ccco3)CC2)cc1 (configuration not stated)	-10	2789	-10	.	.	3.3	9
CC(=O)N1CCN(c2ccc(NC(=O)c3cc(Cl)ccc3Cl)cc2)CC1	9	3085	-14	-3	6	2.9	5
CSCCC(=O)N1CCN(CC(=O)N2CCCC2)CC1	-12	5721	-5	-5	-4	2.9	10
O=P(CCCO)(Cc1ccccc1)Cc1ccccc1	-6	4257	-28	-1	-9	2.2	3
S=c1[nH]nc(COc2ccc(Cl)cc2)o1	-1	19965*	-10	7	7	6.8	-1
S=C1NCCc2ccc(Cl)cc2C1c1ccccc1Cl (configuration not stated)	-3	4531	-8	.	.	-2.8	-5
COc1cc(/C=C/C(=O)OCC(=O)Nc2cc(S(=O)(=O)N3CCCCC3)ccc2C)ccc1O	3	9612	-27	10	12	3.2	16
CCOC(=O)C1CCCN(C(=O)c2cc(S(=O)(=O)Nc3ccccc3OC)ccc2C)C1 (configuration not stated)	2	5224	-10	-7	-3	0.5	5
Cc1cc(-c2nc(C)c(C(=O)NNS(=O)(=O)c3ccc(Cl)cc3Cl)s2)no1	-6	5598	-11	15	4	4.6	4
Nn1c(SCC(=O)Nc2ccc3c(c2)OCCO3)nnc1-c1ccccn1	2	2792	-7	7	-3	15	5
COc1ccc(NC(=O)CSc2nnc(-c3ccoc3C)n2CC2CCCO2)cc1 (configuration not stated)	-12	3564	-17	.	.	0.3	8
NC(N)=N/N=C/c1c(Cl)cccc1Cl	0&-5	5947&5497	0&-20	.	.	.	.
Nc1nnn(CC(=O)NN=Cc2ccc(O)cc2)n1	.	.	.	-2	-7	-1.3	0
Cn1c(C(=O)N2CCN(c3ccc([N+](=O)[O-])cc3)CC2)cc2c(=O)[nH]c3ccccc3c21	-3	3339	0	-11	-4	5.2	3
COc1cc2[nH]c(C(=O)N3CC(C)OC(C)C3)cc2c(OC)c1OC (configuration not stated)	2	3241	-15	-1	-4	-1.3	8
COc1ccc(C=O)cc1CSc1ncccc1C(=O)O	2	3426	-7	9	0	5.9	9
O=C1ON=C(c2ccccc2[N+](=O)[O-])/C1=C/c1cccc([N+](=O)[O-])c1O	.	5451	90*	-2	-1	4.3	6
CCN1C(=O)C(O)(C2COC(C)(C)CC2=O)c2ccccc21 (configuration not stated)	3	4399	-11	.	.	0.2	-2
O=C(c1cn(Cc2ccccc2)nc1-c1ccccc1)N1CCN(c2ccccn2)CC1	.	9026	-34	16	7	1.8	11
Cc1cc(C2CC(=O)Nc3ccccc3S2)c(C)s1 (configuration not stated)	2	?	-27	-2	-1	4.4	6
COc1ccc(N(C(=O)c2cccnc2)S(=O)(=O)c2ccc(Cl)cc2)cc1	8	6081	-9	.	.	3.4	-11
COc1ccc(S(=O)(=O)N2CCC(C(=O)NC3CC(C)(C)NC(C)(C)C3)CC2)cc1	-3	5896	2	-5	1	0.7	-1
COc1ccc(/C=C2\SC(=S)N(CCCC(=O)Nc3ccccc3C(=O)O)C2=O)cc1OC	-2	6182	-8	9	17	6.9	2
O=S(=O)(c1ccccc1F)N1CCC(c2nc3ccccc3[nH]2)CC1	-15	6313	-13	-2	-6	2.9	1
COc1cc(NC(=O)CCC(=O)OCCCC(F)(F)C(F)(F)F)nc(OC)n1	-1	3483	-32	-6	0	1.2	1
Cc1ccc(CSC2=NCCN2S(=O)(=O)c2ccccc2)cc1	-4	2838	-20	13	7	5.0	19
O=C(Cc1ccc(S(=O)(=O)N2CCCC2)s1)Nc1nc2c(s1)CCCC2	4	9256	-21	6	17	0.1	-4
COc1ccc(-c2[nH]ncc2CN2CCN(C3CCCCC3)C(=O)C2)cc1F	1	4049	-7	.	.	.	.
COC(=O)C1=C(NC(=O)C2CCCCC2)CCS1	.	2006	-1	9	12	1.5	3
COc1ccc2c(c1)-c1nc(/N=C/c3ccccc3O)sc1CC2	-1	2536	-21	.	.	.	.
CC(=O)Nc1ccccc1NC(=O)c1ccccc1-c1ccccc1	-3	3039	7	7	10	-1.4	-2
Cc1onc(-c2ccccc2)c1C(=O)Nc1cc(C(F)(F)F)ccc1N1CCOCC1	22	4127	-19	.	.	4.6	-17
O=C(CNC(=O)c1ccccc1)NC1(C(=O)NC2CCCC2)CCCCC1	1	15880	-5	12	6	4.8	6
CC1=C(C(N)=O)C(c2ccccc2)n2nc(-c3ccncc3)nc2N1 (configuration not stated)	4	4191	-24	7	6	-0.1	-2
O=C(OCc1ccccc1)c1cc(S(=O)(=O)N2CCCCC2)ccc1N1CCOCC1	2	5240	-15	14	4	3.8	4
CC(C)C(C(=O)N1CCN(C(=O)OC(C)(C)C)CC1)n1cc(CCO)nn1 (configuration not stated)	.	.	.	19	10	5.1	5
COc1ccc(N2CCN(C(CNC(=O)C3CCCCC3)c3cccnc3)CC2)cc1 (configuration not stated)	-6	2877	2	1	5	4.5	4
NC(Cc1ccc(O)cc1)c1nnc(C(CO)NC(=O)C2CCNCC2)o1 (configuration not stated)	.	.	.	7	3	4.0	-1
Cc1ccc(C(=O)NC(C(=O)Nc2cccc(S(N)(=O)=O)c2)C(C)C)cc1 (configuration not stated)	4	5557	-4	19	8	0.0	4
S=C(Nc1cccnc1)Nc1ccccc1Br	-13	3291	-30	0	5	-0.5	0
COc1ccccc1N1CCN(C(=O)CSc2nnnn2C2CC2)CC1	.	?	-2	-4	0	-2.6	-2
CN(Cc1ccon1)C(=O)CCc1nnc(CCCCc2ccccc2)o1	-8	4012	-22	3	6	7.5	3
O=C(Nc1nc(-c2ccc3c(c2)OCO3)cs1)c1ccncc1	10	23162*	-21	.	.	.	.
CCCc1cc(=O)oc2cc(C)cc(OCC(=O)NCCCn3ccnc3)c12	-4	5772	0	7	4	1.1	1
C/C=C(\C)CN1CCC(Oc2ccc(C(=O)NCc3ccccn3)cc2)CC1	-2	5203	-21	3	2	-2.2	-1
CN1C(=O)CN=C(c2ccc(Cl)cc2)c2cc(Cl)ccc21	-4	4509	-3	4	3	3.6	-9
CCNC(=O)N1CCCC(C(=O)c2ccc(C(F)(F)F)cc2)C1 (configuration not stated)	-8	3724	-42	-3	0	1.6	3
O=C(NN=Cc1ccccc1OC(F)F)NC1CCCCC1	.	.	.	12	7	3.6	3
COc1cc2c(cc1OC)C(COc1ccc(F)cc1)N(C(C)=O)CC2 (configuration not stated)	-6	3749	39	-10	-2	0.8	-1
O=C(CN1C(=O)S/C(=C/c2ccncc2)C1=O)Nc1ccccc1	-9	5117	-8	11	1	0.8	9
Cc1ccc(N(C(=O)CNC(=O)c2ccco2)C(C(=O)NC2CCCCC2)c2cccnc2)c(C)c1 (configuration not stated)	-1	3886	-16	-3	0	-6.2	-3
Cc1ccc(C)n1-n1c(C)nc2sc3c(c2c1=O)CCCCC3	9	3178	-20	11	16	-11	-2
COCCCNC(=O)c1oc2ccc(S(=O)(=O)N3CCOCC3)cc2c1C	2	3930	-19	-5	5	0.2	4
CCOc1ccccc1NC(=O)c1cc2ccccc2oc1=O	-8	3036	-11	-3	-7	1.6	-2
